Vaccinia pol inh – vaccinia E9 polymerase processive synthesis inhibition | normalized absorbance, % (concentration not given with the values) | 0.94% of 46,000 active | AID 493162 | in vitro processive DNA synthesis, absorbance read-out; active compounds read low; some inactives read as strong as hits;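 active = replicate mean up to 90% and picked by the depositor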;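 note: 100% = median of the test wells of a plate; 100 nL library stock went into each well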
The depositor's hits bear a star. This is a subset (hit frequency here may not be typical).

The first 5 entries, ahead of the listing:
SMILES | Vaccinia pol inh
COC(=O)c1ccc(/C=[N+](\[O-])c2ccccc2)cc1 | 104
CN(c1ccc(Cl)cc1)c1cc(=O)n(C)c2ccccc12 | 63*
CN1CCc2c(sc3c2C(=O)NC(/C=C/c2ccco2)N3)C1 (stereo not drawn) | 100
Cc1ccc(NC2CC(C)Nc3cc(C)ccc32)cc1 (stereo not drawn) | 91
Cc1ccn2cc(-c3cccc(NS(C)(=O)=O)c3)nc2c1 | 109

Results, from the start:
SMILES | Vaccinia pol inh
COC(=O)c1ccc(/C=[N+](\[O-])c2ccccc2)cc1 | 104
CN(c1ccc(Cl)cc1)c1cc(=O)n(C)c2ccccc12 | 63*
CN1CCc2c(sc3c2C(=O)NC(/C=C/c2ccco2)N3)C1 (stereo not drawn) | 100
Cc1ccc(NC2CC(C)Nc3cc(C)ccc32)cc1 (stereo not drawn) | 91
Cc1ccn2cc(-c3cccc(NS(C)(=O)=O)c3)nc2c1 | 109
O=C(/C=C/c1ccc(Cl)cc1Cl)NCc1cccnc1 | 101
c1ccc(CCn2c(CSc3nc4ccccc4o3)nc3ccccc32)cc1 | 99
COc1cc2c(cc1OC)C(=NCCC(=O)O)NC(C)(C)C2 | 100
CCN(c1ccc(C)c(C)c1)S(=O)(=O)c1ccc2c(c1)oc(=O)n2C | 101
CNC(=O)COC(=O)c1ccc(Cl)c(Cl)c1 | 99
Cc1ccc(S(=O)(=O)N2CC3CCC2C3)cc1 (stereo not drawn) | 100
Cc1[nH]c2ccccc2c1C1(O)C(=O)N(CCc2ccccc2)c2ccc(Br)cc21 (stereo not drawn) | 93
Clc1ccc(-c2cn3c(n2)CCC3)cc1Cl | 96
O=C(CCN1CCC(c2cccs2)=N1)c1cccs1 | 105
COc1ccc(CNC(=O)c2cnc3scc(C)n3c2=O)cc1 | 102
Nn1c(=O)c2ccccc2n2c(SCC(=O)c3ccccc3)nnc12 | 102
CC1(C)CCc2cc(-c3ccn(S(=O)(=O)c4cccc(C(F)(F)F)c4)n3)ccc2O1 | 102
Cc1ccc2c(c1)-c1onc(C(=O)N3CCC(C)CC3)c1CO2 | 98
Cc1ccc(Cl)cc1NC(=O)Cn1c(=O)n(CCc2c[nH]c3ccccc23)c(=O)c2cccnc21 | 96
COc1cccc(-n2cc(C(=O)NCc3ccccc3Cl)c3ccccc3c2=O)c1 | 98
CNC(=O)C1CCCN(c2nn3cc(-c4ccc(OC)cc4)nc3s2)C1 (stereo not drawn) | 77
CCC(=O)N(c1ccc(OC)cc1OC)C1C=CS(=O)(=O)C1 (stereo not drawn) | 92
Cc1ccc(C)c(NCc2ccc3c(c2)OCO3)c1 | 93
CC1OC(OC2CC(O)C3(CO)C4C(CCC3(O)C2)C2(O)CCC(C3=CC(=O)OC3)C2(C)C[C@H]4O)C(O)C(O)C1O (stereo partly drawn) | 100
O=C(CNC(=S)N(Cc1ccccc1)Cc1cccnc1)NC1CC1 | 101
C=CCN1C(=O)/C(=C2\SC(=Nc3ccccc3)N(c3ccccc3)C2=O)c2ccccc21 | 100
CC(=O)c1sc2nsc(SCCN3CCCCC3)c2c1N | 75
COC(=O)c1cc2c(C)nn(-c3ccccc3)c2s1 | 100
COc1ccc2cc(C#N)c(Cl)nc2c1 | 94
NC(=O)c1ccc(NC(=O)COC(=O)Cc2cccc3ccccc23)cc1 | 105
N#Cc1ccccc1NS(=O)(=O)c1ccccc1 | 107
CCOc1ccc(C2c3cc(OC)c(OC)cc3CC(=O)N2c2ccccc2)cc1 (stereo not drawn) | 102
NNC(=O)C1CCC(c2ccc(Cl)cc2)CC1 (stereo not drawn) | 92
CCOC(=O)C1C(=O)Oc2ccc(Br)cc2C1C1(C(=O)OC)CCCCC1 (stereo not drawn) | 100
CC1(C)CC(=O)C(C(c2ccc(F)cc2O)C2C(=O)CC(C)(C)CC2=O)C(=O)C1 | 100
CC(=O)Oc1ccccc1C(=O)NCc1ccc(C)cc1 | 99
COc1ccc(CC2CCC3(CC2)NC(=O)c2ccccc2O3)cc1 (stereo not drawn) | 100
CC(=O)Oc1ccc(-c2ccc(C(=O)O)cc2)cc1C | 98
CCN1CCn2c3c(c4cc(Cl)ccc42)CCCC31 (stereo not drawn) | 100
O=C(CCC(=O)c1cccs1)Nc1cc(Cl)cc(Cl)c1 | 98
O=C(OCCN1CCCC1=O)c1sc2cc(Cl)ccc2c1Cl | 84
Cn1c(SC/C=C/c2ccccc2)nc2sc3c(c2c1=O)CCCC3 | 99
COC(CNC(=O)c1ccc(/C=C2\Oc3ccccc3N(Cc3cccc(F)c3)C2=O)cc1)OC | 100
O=C(O)c1ccccc1N(Cc1ccccc1)C(=O)c1ccco1 | 100
CCc1ccc2[nH]c(C(=O)Nc3ccc(C(F)(F)F)c(C#N)c3)cc2c1 | 103
CS(=O)(=O)c1cc2ccccc2nc1N | 102
COc1ccc(-c2c3c(nc4c(C#N)c(C)n(-c5ccccc5)c24)CCC3)cc1 | 100
O=C(NCCC(c1ccccc1)c1ccccc1)c1cnc2ccccn2c1=O | 103
CCCCC/C=C\C/C=C\C/C=C\C/C=C\CCCC(=O)O[C@@H](CO)COC(=O)CCCCCCCCCCCCCCCCC | 100
CCOc1ccccc1N(C)C(=O)COc1cc(=O)n(C)c2ccccc12 | 88
New compounds follow.
SMILES | Vaccinia pol inh
COC(=O)c1sc(-c2ccc(Cl)cc2)nc1C | 87
CCCCC(=O)Nc1sc2c(c1C(N)=O)CCC2 | 102
O=C(COc1ccc(Cl)cc1)OCC(=O)N1CCCCCC1 | 103
CCCN(C(=O)Cc1noc2ccc(C)cc12)c1ccc(F)cc1 | 97
CC1(C)C(C(=O)Nc2ccc(S(=O)(=O)c3ccc(NC(=O)C4C(C)(C)C4(C)C)cc3)cc2)C1(C)C | 100
Cc1ccc(-c2c(C(=O)NC(C)C)oc(=O)c3ccccc23)cc1 | 97
Cc1ccc(N=Cc2cc3ccccc3nc2Cl)c(C)c1 | 100
NC(=O)c1ccccc1NC(=O)COC(=O)CC1CCCC1 | 99
CSC1=NC2C(N1)N(C)C(=O)N2C (stereo not drawn) | 100
CCC1=C(C(=O)OC)C(c2ccc(Br)cc2)n2ncnc2N1 (stereo not drawn) | 91
COC(CNC(=O)c1cccc(N2CCCC2=O)c1)OC | 102
O=C1NC(=O)C(=Cc2ccc(-c3ccccc3)o2)C(=O)N1 | 99
O=c1[nH]c2ccc(N=Cc3ccc(O)cc3)cc2[nH]1 | 100
CN1C(=O)C2C=CC=CC2N=C1SCc1ccccc1F (stereo not drawn) | 101
CCOC(=O)c1sc2nc(SCC(=O)C(C)(C)C)n(N)c(=O)c2c1C | 95
CC1=C(C(=O)Nc2ccc(F)cc2)C(c2ccc(F)cc2)C2=C(CC(c3ccccc3)CC2=O)N1 (stereo not drawn) | 100
CS(=O)(=O)Nc1cc(Br)c(O)c(Br)c1 | 101
O=C(/C=C/c1ccco1)Nc1ccc(N2CCCC2)cc1 | 101
CCN1CCN(Cc2ccc(NC(=O)Nc3ccccc3)cc2)CC1 | 99
O=C(CSc1nc2ccccc2c(=O)[nH]1)Nc1ccccc1N1CCOCC1 | 99
O=c1ccc(-c2ccc(F)cc2)n[nH]1 | 94
O=C(CCCC(=O)n1nnc2ccccc21)Oc1ccccc1F | 92
O=C1CN(C(=O)COc2ccccc2)CCN1 | 108
O=C(Nc1cccc(C(F)(F)F)c1)C(Sc1cccc[n+]1[O-])c1ccccc1 (stereo not drawn) | 94
COC(=O)c1cc2sccc2n1CC(=O)N(C)c1ccccc1 | 102
CN1CCN(CCc2nnc3n2CCCCC3)CC1 | 97
O=C(c1cccs1)c1cn(CCOc2ccccc2)c2ccccc12 | 103
CCN(CC)CCNC(=O)COc1ccc(OC)cc1 | 100
O=C(O)/C=C/C(=O)N1CCN(c2ccccc2)CC1 | 109
O=C(O)c1cn2ccccc2c1C(=O)O | 97

Arranged by heavy-atom count (lowest first): part of the list above.
SMILES | Vaccinia pol inh
O=c1ccc(-c2ccc(F)cc2)n[nH]1 | 94
O=C(O)c1cn2ccccc2c1C(=O)O | 97
O=C1CN(C(=O)COc2ccccc2)CCN1 | 108
CN1CCN(CCc2nnc3n2CCCCC3)CC1 | 97
CCN(CC)CCNC(=O)COc1ccc(OC)cc1 | 100
O=C(Nc1cccc(C(F)(F)F)c1)C(Sc1cccc[n+]1[O-])c1ccccc1 (stereo not drawn) | 94

Next section:
SMILES | Vaccinia pol inh
COc1cc(/C=C2/SC(=Nc3ccccc3)N(N(C)C)C2=O)cc(Br)c1OC | 100
CC1CCN(CC(O)COc2c(F)cc(Br)cc2F)CC1 (stereo not drawn) | 100
CCN1CCc2c(sc3c2C(=O)NC(c2ccc(COc4cccc(C(F)(F)F)c4)o2)N3)C1 (stereo not drawn) | 97
CN(C)c1nc2ccccc2c(=O)s1 | 100
CN(CC(=O)NCc1cccs1)S(=O)(=O)c1cccc2cccnc12 | 98
CSc1nc(C=Nc2cccc(Cl)c2)c(O)n1Cc1cccc(Cl)c1 | 98
COc1ccc(NC(=O)CSc2nnc3ccccn23)cc1 | 97
Cc1ccsc1/C=C/C(=O)NCC(=O)O | 91
COc1ccc2[nH]c3c(=O)n(CCC(=O)NCCc4ccc(OC)c(OC)c4)c(=S)[nH]c3c2c1 | 100
COc1cccc(NC(=O)c2cc3c(s2)-c2c(C)cccc2OC3)c1 | 101
CCc1ccc(N2CC(O)(c3ccccc3)[N+]3=C2CCCC3)cc1 (stereo not drawn) | 95
C/C=C/C1OC23CCCCC2C(C#N)(C(=N)O3)C1(C#N)C#N (stereo not drawn) | 100
COc1cccc(OCCSc2nc3ccccc3s2)c1 | 99
Cc1ccc(S(=O)(=O)/N=C(/N)c2ccccc2)cc1 | 92
C/C(N)=C/C(=O)c1ccccc1 | 109
O=C(Nc1nccs1)c1cc(=O)[nH]c2ccccc12 | 99
CC(C)(C)N1CC(C(=O)O)CC1=O (stereo not drawn) | 98
O=C(C1CC(=O)N(c2ccc(F)c(Cl)c2)C1)N1CCCCC1 (stereo not drawn) | 107
CSCC(O)Cn1[nH]c(=O)ccc1=O (stereo not drawn) | 100
C/C(=C\C(=O)Nc1ccccc1)N1CCOCC1 | 101
FC(F)(F)c1ccccc1CNCC1NCCc2ccccc21 (stereo not drawn) | 101
Cc1ccc(Oc2ncc(C(F)(F)F)cc2Cl)c2c1CCC2 | 84
Brc1ccc(-c2cnc3ccccc3n2)s1 | 107
CCOC(=O)c1c(N)n[nH]c1C | 100
COC(=O)/C=C1\SC(=NC(=O)c2ccc(F)cc2)NC1=O | 100
O=S(=O)(Cc1ccccc1)c1nc2ccccc2n1Cc1ccc(Br)cc1 | 100
CCc1ccc(NC(=O)N2CC(C)Sc3ccccc32)cc1 (stereo not drawn) | 92
O=C(CNC(=O)C1CCCCC1)Nc1nc2ccccc2s1 | 100
O=C(NC1CC1)c1ccc(Cl)cc1Cl | 101
O=C1C(Cc2ccc(-c3nn[nH]n3)cc2)=C(c2ccccc2)S(=O)(=O)c2ccccc21 | 94
N#Cc1cc[n+](CC(=O)c2ccc(NC(=O)c3ccccc3)cc2)cc1 | 98
COc1ccc(-c2n[nH]c(C)c2-c2ccccc2)c(O)c1C | 100
CCOC(=O)C(Cc1ccc(NC(=O)c2ccccc2)cc1)N1C(=O)c2ccccc2C1=O (stereo not drawn) | 100
CC(=O)N1CCc2c(sc(NC(=O)Cc3ccccc3)c2C#N)C1 | 113
O=S1(=O)C=C(N2CCOCC2)c2ccccc21 | 100
CCC1NCCc2c1[nH]c1ccccc21 (stereo not drawn) | 100
CCN(CC)C(=O)Cn1nnc(-c2ccc(C)cc2)n1 | 90
Cc1[nH]c2ccc(C(=O)O)cc2c1CC(=O)O | 88
CCCC(=O)Nc1ccc(N)cc1 | 101
COC(=O)Oc1ccc2c(=O)c(-c3ccccc3)coc2c1 | 100
COc1ccc(-c2[nH]ncc2-c2ccccc2)c(O)c1 | 92
CCOC(=O)N1CCN(CC(O)COCCC23CC4CC(CC(C4)C2)C3)CC1 (stereo not drawn) | 100
CC1(C)CC(CCNCc2ccc3c(c2)OCO3)(Cc2ccccc2)CCO1 (stereo not drawn) | 97
CCOC(=O)c1c(C)noc1-c1csc(Nc2c(C)cc(C)cc2C)n1 | 99
CCCCC(=O)N(c1ccc(OC)cc1)C1C=CS(=O)(=O)C1 (stereo not drawn) | 102
CC1CCCC(NC(=O)CSc2nccn2C)C1C (stereo not drawn) | 108
O=C(O)CCc1ccc(Cl)cc1Cl | 98
O=S(=O)(c1ccccc1)c1ccc(Br)cc1 | 100
Cc1nn(-c2ccccc2)nc1CNC(=O)CC(C)(C)C | 95
COc1ccc([C@H]2[C@@H](C#N)[C@H](C#N)N3CCCN23)cc1 | 99
Remaining list, next part
SMILES | Vaccinia pol inh
Cn1cccc1Cc1nnc(SCC(=O)N2CCCCC2)n1-c1ccc(F)cc1 | 100
COc1ccc2oc(-c3ccccc3)cc(=O)c2c1 | 77
CCCc1c(C(=O)Nc2cc(F)ccc2F)cnn1C | 104
O=C(NCc1ccncc1)c1cn(-c2ccccc2)nc1-c1cccs1 | 97

Laid out differently: results already given
canonical_smiles	Vaccinia pol inh
O=C(NCc1ccncc1)c1cn(-c2ccccc2)nc1-c1cccs1	97
COc1ccc2oc(-c3ccccc3)cc(=O)c2c1	77
CCCc1c(C(=O)Nc2cc(F)ccc2F)cnn1C	104
Cn1cccc1Cc1nnc(SCC(=O)N2CCCCC2)n1-c1ccc(F)cc1	100

Bioassay records as filed in PubChem.
